VACV mCherry inh: inhibitors of vaccinia virus infection (mCherry reporter signal); AID 720579; Vaccinia virus mCherry reporter infection, fluorescence; about a quarter of the inactives have no number; Potency, µM (doses to about 36.5 µM), for the others: at the top dose activity change, negative = inhibition, hits mostly inhibitors; 310,000 compounds, 0.63% hits; active = well fitted inhibition curve with a large enough effect; inconclusive = small, poorly fitted or top-dose-only effect; inactive = no such curve, though single readings can be large or run the other way; tested in A549 cells; also: nearly all actives have a fitted effect of over 35% in size; inactives centre near -10
VACV Venus inh: vaccinia inhibition (Venus reporter) | Vaccinia virus Venus reporter expression, fluorescence | Potency, µM (titrated, usually from 36.5 µM), without a hit: top-dose activity change, negative = inhibition, actives largely listed as inhibitors | 330,000 compounds, 0.46% hits | AID 720580; active means well fitted inhibition curve with a large enough effect; inconclusive means small, poorly fitted or top-dose-only effect; inactive means no such curve, though single readings can be large or run the other way; tested in A549 cells; also: nearly all actives have a fitted effect of over 30% in size; inactives centre near -10
The depositor's hits bear a star; i = inactive; ? = inconclusive; · = no result given; & = joins results of further samples; [ ] = dose if it differs, or a comment. % is scaled to controls: 0 for no effect and ±100 for the full control effect; potency is read from the fitted curve at half-maximal effect.

SMILES	VACV mCherry inh	VACV Venus inh
CCCNC(=O)C1(C)CCCN(Cc2ccc(C#N)cc2)C1 (stereo not drawn)	16%	7%
CCCCc1nn2c(=O)cc(COC(=O)c3cccc(NC(=O)c4cccc(C)c4)c3)nc2s1	-12%	-13%
Cc1cc(C)c(CN2CCN(Cc3ccc(C)o3)C(CCO)C2)c(-n2cccn2)c1 (stereo not drawn)	-31%	-18%
CCCCN1C(=O)C(CC(=O)NC(c2ccccc2)c2ccccc2)CC(C(=O)N2CCOCC2)=C1C (stereo not drawn)	i	-18%
CSc1ccc(S(=O)(=O)NCCCOC(C)C)cc1	-7%	-5%
Cc1cccc(-n2c(Cn3nc(C)c([N+](=O)[O-])c3C)n[nH]c2=S)c1	·	-5%
Cc1ccc(Sc2cc(N3CCOCC3)nc(-c3ccccc3)n2)cc1	-6%	-10%
CCOc1ccccc1NC(=O)N1CCCC1C(=O)Nc1ccc(-n2cnnn2)c(C)c1 (stereo not drawn)	-6%	2%
Cc1nn(CC(=O)NCc2ccc(Cl)cc2)c(C)c1[N+](=O)[O-]	i	-12%
O=C(Nc1ccccc1)c1cccc(N2C(=O)C3C4CC(C(Br)C4Br)C3C2=O)c1 (stereo not drawn)	-2%	-13%
CC(C)(C)OC(=O)N1C[C@H](O)C[C@H]1C(=O)OCC(=O)c1ccc([N+](=O)[O-])cc1	-23%	-19%
COc1ccc(-c2cc3c(=O)n(CC(=O)Nc4cc(F)ccc4F)ccn3n2)cc1OC	-8%	-2%
O=C(Cc1c[nH]c2ccccc12)Nc1ccc(N2CCOCC2)cc1	-10%	-8%
C#CCOCCOCCOCCNc1nc(N2CCN(C(=O)Cn3cc(CCCN=C(N)N)nn3)CC2)nc(N2CCN(C(=O)[C@H]([C@@H](C)CC)n3cc(CCCCN)nn3)CC2)n1	i	-15%
CCCc1cnc2c(c1SCc1cccc(C)c1)c(=O)n(C)c(=O)n2C	-12%	-9%
CCCNC(=O)C(=O)Nc1ccc(N(C)C)cc1	·	-5%
Cc1ccccc1OCC(=O)Nc1ccccc1-c1ccccc1NC(=O)COc1ccccc1C	-18%	-13%
COC(=O)c1ccc(COc2cccc(C)c2C)cc1	-15%	-22%
Cc1ccc(NS(=O)(=O)c2cc(C(=O)N3CCOCC3)ccc2C)cc1	-5%	-7%
CCCCc1ccc(S(=O)(=O)N2CCN(C(=O)c3ccco3)CC2)cc1	-16%	-18%
CCn1nc(C)cc1C(=O)N1CCCC(CCC(=O)NCc2ccccc2F)C1 (stereo not drawn)	-2%	-21%
O=C(CCC(=O)N1CCN(c2ccccc2)CC1)Nc1nnc(C2CCCCC2)s1	-11%	-6%
COC(=O)NCC(c1cccnc1)N1CCN(c2ccccc2)CC1 (stereo not drawn)	-2%	-23%
CC1CCCCN1C(=O)c1ccc2c(c1)N(Cc1ccc(Cl)cc1)C(=O)c1ccccc1S2=O (stereo not drawn)	-5%	-7%
Cc1ccc(Cn2c(=O)n(CCc3ccc(Cl)cc3)c(=O)c3ccccc32)cc1	-7%	5%
COc1ccc(NC(=O)CSc2n[nH]c(-c3ccncc3)n2)c([N+](=O)[O-])c1	-19%	-13%
CCOc1ccc(C2NC(=S)NC3=C2CCc2ccccc23)cc1 (stereo not drawn)	-13%[7.34 µM]	3%[7.34 µM]
CC1CCCN(S(=O)(=O)c2ccc3c(c2)CCN3C(=O)C2CCC2)C1 (stereo not drawn)	-14%	-7%
Cc1ccc(Cn2nc(C)cc2C(=O)Nc2ccccc2Cl)cc1	-16%	-7%
COCCN(C(=O)COC(=O)c1ccccc1Cc1ccccc1)c1c(N)n(Cc2ccccc2)c(=O)[nH]c1=O	?	?
O=C(NC1CCCC1)c1ccc(CSc2nc3ccncc3n2Cc2ccc(F)cc2)cc1	?	?
N#CC(c1ccccc1)N(CCCCl)C(=O)c1ccc(Br)cc1 (stereo not drawn)	i	-14%
O=S(=O)(c1ccccc1)c1nc(-c2cccs2)oc1NCc1cccnc1	-4%	-12%
COc1ccc(-c2noc3c2-c2nc(-c4cccc(C)c4)sc2CC3)cc1	-18%	-5%
Cc1nc2ccccc2c2oc(C(=O)Nc3ccc4c(c3)OCCO4)cc12	-8%	-5%
CCOC(=O)c1ccccc1N/C=C1\CCCCC1=O	-1%	-8%
CN(C)CCNC(=O)c1cccc(-c2cnc3c(NC=O)cc(-c4ccc(S(C)(=O)=O)cc4)cn23)c1	47%[activator]	6%
Cc1cc(-c2onc(C)c2C(=O)Nc2ccc(C(F)(F)F)cc2)no1	i[7.34 µM]	-2%[7.34 µM]
O=S(=O)(c1ccc(N2CCOCC2)nc1)N(Cc1ccccn1)Cc1ccccn1	0%[7.34 µM]	-9%[7.34 µM]
CCOC(=O)c1ccc(N2C(=O)c3n[nH]c(C)c3C2c2cccc(Br)c2)cc1 (stereo not drawn)	-4%[7.34 µM]	-3%[7.34 µM]

An excerpt of these results, with each value named.
CCOC(=O)c1ccccc1N/C=C1\CCCCC1=O
  VACV mCherry inh: -1%
  VACV Venus inh: -8%
CN(C)CCNC(=O)c1cccc(-c2cnc3c(NC=O)cc(-c4ccc(S(C)(=O)=O)cc4)cn23)c1
  VACV mCherry inh: 47%[activator]
  VACV Venus inh: 6%
Cc1cc(-c2onc(C)c2C(=O)Nc2ccc(C(F)(F)F)cc2)no1
  VACV mCherry inh: i[7.34 µM]
  VACV Venus inh: -2%[7.34 µM]

Next entries.
SMILES	VACV mCherry inh	VACV Venus inh
CCc1noc(C)c1C(=O)N(CC(C)C)c1c(N)n(Cc2ccccc2)c(=O)[nH]c1=O	i	-9%
Cc1cnc(C(=O)Nc2ccccc2C(=O)N2CCOCC2)cn1	-9%	4%
COc1ccc(-c2cc(-c3nnc(COC(=O)c4ccc(O)cc4)o3)c3ccccc3n2)cc1OC	-2%	-16%
O=C(CSc1ncn[nH]1)CSc1ncn[nH]1	i	-2%
Cc1cc(Cl)ccc1OCC(=O)NCCOc1nc(N2CCCCC2)nc(N2CCOCC2)n1	-13%	-4%
O=C(O)CCCC(=O)Nc1ccccc1SCCS(=O)(=O)c1ccc(Cl)cc1	20µM*	?
CC1=C(C(=O)N(C)C)CC(CC(=O)NCc2cccs2)C(=O)N1Cc1ccc(F)cc1 (stereo not drawn)	5%	-2%
O=C(NCC1CCCO1)c1ccc(NC(=O)C2CC=CCC2C(=O)O)cc1 (stereo not drawn)	·	3%
COc1cc(C(=O)NCc2nnc(SCC(=O)Nc3cc(C)on3)o2)cc(OC)c1OC	i	-5%
COc1cc2c(cc1OC)C(c1cc(Br)ccc1F)N(C(=O)CCl)CC2 (stereo not drawn)	?	?
Cc1nnc(SCC(=O)NCc2ccc(F)cc2)[nH]c1=O	i	-1%
CCN(CC)C(=O)C(=O)Nc1ccc(F)c(Cl)c1	i	6%
CC(Oc1ccccc1F)C(=O)NNC(=O)c1cc2ccccc2o1 (stereo not drawn)	8%	1%
Cc1ccc(C(=O)N[C@H](C(=O)OCC(=O)Nc2cccc(S(N)(=O)=O)c2)C(C)C)cc1	-6%	-14%
Cc1ccc(SCc2cn3c(C)csc3n2)cc1	i	-13%
CCN/C=C(\C#N)S(=O)(=O)c1ccc(Br)cc1	-25%	-20%
Cc1ccc(N2CC(c3nnc(NC(=O)c4ccco4)s3)CC2=O)cc1Cl (stereo not drawn)	1%	2%
COC(=O)C1=C(CSc2nc3ccccc3s2)NC(=O)NC1c1ccc(F)cc1 (stereo not drawn)	i	-5%
O=C(Cc1ccc(Br)cc1)NC1CCSC1=O (stereo not drawn)	-1%	-3%
O=c1[nH]c(C2CCCN(S(=O)(=O)c3ccccc3)C2)nc2c1nnn2Cc1ccc(OC(F)(F)F)cc1 (stereo not drawn)	-18%	-12%
CCN(CC)CCC12CC(C)OC1=Nc1ccccc1NC2=O (stereo not drawn)	5%	3%
Cc1ccc(NS(=O)(=O)c2ccc(C(=O)NCC(c3ccco3)N(C)C)cc2)cc1 (stereo not drawn)	-27%	-17%
O=C(NCCCN1CCOCC1)c1cn(-c2ccccc2)nc1-c1cccs1	·	?
CCC(C)NC(=O)C1(N2C(=O)c3ccccc3C2=O)CCCC1 (stereo not drawn)	-15%	-6%
Cc1c(C(=O)N2CCN(c3ccc(C(F)(F)F)cn3)CC2)oc2ccccc12	-14%	-11%
CCOC(=O)CN1C(=O)C2(OCCCO2)c2cc(Br)ccc21	i	-14%
COc1ccc(OC)c(N2Cc3cc(C)c(C)cc3C2)c1	-14%	-5%
CC(NC(=O)C(=O)N/N=C/c1ccccc1)c1ccccc1 (stereo not drawn)	i	6%
O=c1cc(-c2ccccc2)c2cc3c(cc2[nH]1)OCCO3	i	-14%
c1ccc(N2CC3CCc4ccccc4C3=N2)cc1 (stereo not drawn)	-17%	-2%
O=C(N[C@H]1CCC(=O)N([C@H](CSc2ccccc2)Cc2ccccc2)CC1)OCc1ccccc1	-11%&-1%	?
CC(=O)Nc1ccccc1NS(=O)(=O)c1cccc([N+](=O)[O-])c1	-5%	-2%
COc1ccc(CN2CC[C@H]3C=CC[C@@H](C(=O)Nc4ccc(Cl)c(C(F)(F)F)c4)[C@H]3C2=O)cc1OC	-6%&-3%	?
Cc1csc(NC(=O)CSC2=NS(=O)(=O)c3cc(F)ccc3N2)n1	-11%	-9%
CC(C(=O)Nc1ccccc1C(=O)N1CCOCC1)N(c1ccc(Cl)cc1)S(C)(=O)=O (stereo not drawn)	-6%	-3%
NS(=O)(=O)c1cccc(NC(=O)COC(=O)CCSc2ccccc2)c1	0%	-8%
O=C(NCc1ccccc1)c1ccc2c(c1)OCCO2	·	-12%
CCOc1ccc2oc(=O)cc(CN3CCN(c4ccccc4)CC3)c2c1	-6%	-13%
CCC1(c2ccccc2)NC(=S)N(c2cccc(C)c2C)N1 (stereo not drawn)	-14%	-10%
CCCS(=O)(=O)NC(=O)C1(C)CCCN(C(=O)c2cc(F)cc(F)c2)C1 (stereo not drawn)	i	-4%
O=C(CC[N+](=O)[O-])OCC1OC(O)C(OC(=O)CC[N+](=O)[O-])[C@@H](OC(=O)CC[N+](=O)[O-])C1OC(=O)CC[N+](=O)[O-] (stereo partly drawn)	i	0%
CCN(C(=O)CN1CCN(S(=O)(=O)c2ccccc2C(F)(F)F)CC1)c1c(N)n(Cc2ccccc2)c(=O)[nH]c1=O	-11%	-8%
Cc1oc2ccc(O)c(CN3CCOCC3)c2c1C(C)O (stereo not drawn)	-8%	0%
COCCCNC(=O)c1ccc(NS(C)(=O)=O)cc1	·	-9%
Cc1ccc2nc3c(c(C(=O)OCC(=O)NC4CCS(=O)(=O)C4)c2c1)CCCC3 (stereo not drawn)	-2%	-18%
CCOC(=O)N1CCN(C(=O)c2ccc(S(=O)(=O)NCc3ccco3)cc2)CC1	-8%	-5%
Cc1ccc(NC(=O)c2cncc(Br)c2)c([N+](=O)[O-])c1	-19%	-6%
O=C(Nc1ccccc1C(=O)NC(Cc1ccccc1)C(=O)NC1CCCCCC1)c1ccccc1 (stereo not drawn)	i	-23%
COc1ccc(-c2c(-c3cc(OC)cc(OC)c3)n(C)c3ccc(-c4ccc(S(N)(=O)=O)cc4)cc23)cc1	70%[activator]	198%[activator]
COc1cc2c(cc1OC)CN(C(=O)Cc1c(F)cccc1Cl)CC2	i	-6%
Cc1ccc(S(=O)(=O)NC2=C(N3CCN(c4ccccc4F)CC3)C(=O)c3ccccc3C2=O)cc1	-17%	-1%&-5%
O=C(c1ccc(Cl)cc1)c1ccc(Oc2cc(NN3CCCCC3)c([N+](=O)[O-])cc2[N+](=O)[O-])cc1	?	-23%
Cc1ccc(C)c(OCC(=O)O/N=C(\N)c2cccc([N+](=O)[O-])c2)c1	?	-11%[7.34 µM]
CSc1ncc(Sc2ccccc2)c(C(=O)O)n1	-15%	2%
COC(=O)CC(NC(=O)c1ccc(C)cc1)c1ccccc1 (stereo not drawn)	i	-11%
COc1cc2cc[n+]3cc4c(OC)c(OC)ccc4cc3c2cc1OC	i	-16%
Cc1ccc(Cl)cc1NC(=O)c1oc2ccc(S(=O)(=O)N(C)C3CCCCC3)cc2c1C	-16%	-16%
Cc1ccc(S(=O)(=O)N(Cc2cc3ccccc3[nH]c2=O)CC2CCCO2)cc1 (stereo not drawn)	i	-16%

Gathered by group, the entries above with an NH in an aromatic ring
SMILES	VACV mCherry inh	VACV Venus inh
Cc1cccc(-n2c(Cn3nc(C)c([N+](=O)[O-])c3C)n[nH]c2=S)c1	·	-5%
O=C(Cc1c[nH]c2ccccc12)Nc1ccc(N2CCOCC2)cc1	-10%	-8%
COc1ccc(NC(=O)CSc2n[nH]c(-c3ccncc3)n2)c([N+](=O)[O-])c1	-19%	-13%
COCCN(C(=O)COC(=O)c1ccccc1Cc1ccccc1)c1c(N)n(Cc2ccccc2)c(=O)[nH]c1=O	?	?
CCOC(=O)c1ccc(N2C(=O)c3n[nH]c(C)c3C2c2cccc(Br)c2)cc1 (stereo not drawn)	-4%[7.34 µM]	-3%[7.34 µM]
CCc1noc(C)c1C(=O)N(CC(C)C)c1c(N)n(Cc2ccccc2)c(=O)[nH]c1=O	i	-9%
O=C(CSc1ncn[nH]1)CSc1ncn[nH]1	i	-2%
Cc1nnc(SCC(=O)NCc2ccc(F)cc2)[nH]c1=O	i	-1%
O=c1[nH]c(C2CCCN(S(=O)(=O)c3ccccc3)C2)nc2c1nnn2Cc1ccc(OC(F)(F)F)cc1 (stereo not drawn)	-18%	-12%
O=c1cc(-c2ccccc2)c2cc3c(cc2[nH]1)OCCO3	i	-14%
CCN(C(=O)CN1CCN(S(=O)(=O)c2ccccc2C(F)(F)F)CC1)c1c(N)n(Cc2ccccc2)c(=O)[nH]c1=O	-11%	-8%
Cc1ccc(S(=O)(=O)N(Cc2cc3ccccc3[nH]c2=O)CC2CCCO2)cc1 (stereo not drawn)	i	-16%

High-throughput results: PubChem, National Center for Advancing Translational Sciences (NCATS)

This is a random part of the collection; 0.86% or so of the library scored in one or more.
